Screening data (PubChem BioAssay)
E coli growth – E. coli growth inhibition; OD600 absorbance (no concentration beside the values); Escherichia coli growth, OD600, 23 h; hits give low values; hit rate 0.21% among 330,000;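 active = OD600 absorbance below the run mean of sample wells minus 3.6 SD, in any replicate, cut at about 0.56 in these data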;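 also: stock transfer was 300 nL into about 60 µL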
Bfl-1 A1 inh – inhibitors of the anti-apoptotic protein A1, read as caspase activation. MEF A1-2A-BIM cells, Caspase-Glo 3/7 luminescence, 3 h; percent of clofoctol response, vehicle zero. caspase activation, % (no concentration beside the values). hit rate 0.066% among 330,000. AID 2462;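 active = over half of replicate activation scores above 10%, or exactly half above 10 with the replicate mean above 10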;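 also: wells of about 30 µL received 50 nL stock; many hits fall short of the cut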
T cruzi inh – blocks replication of Trypanosoma cruzi; T. cruzi beta-gal in NIH3T3, luminescence, 90 h; inhibition, % (test concentration not listed); hit rate 1.4% among 300,000; AID 1885;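 active = mean inhibition across valid replicates above about 55%, limit read from the data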;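 also: signal also drops with host cell toxicity which is not excluded here; 0% = plate median of DMSO wells and 100% = zero luminescence signal; higher percent means less beta-gal luminescence so fewer parasites; stock transfer was 50 nL into about 50 µL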
Beta cell apopt – blocks beta cell apoptosis | INS-1E cytokine-induced death, ATP luminescence, 48 h; percent of positive-control rescue, neutral wells zero | protection from apoptosis, % (no concentration beside the values) | hit rate 0.8% among 300,000 | AID 435005;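 active = all replicates at 75% or more, or half of them and the mean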;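 also: 0% = cytokine-treated negative control wells and 100% = positive control rescue; higher means more ATP so stronger rescue from cytokine killing; wells of about 40 µL received 100 nL stock; the first replicate is given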
Ecoli rRNA inh – inhibits bacterial ribosomal RNA function over humanized ribosomes; E. coli WT GFP vs humanized-ribosome RFP mutants, fluorescence, 24 h; hits give low values; DMSO median 0, no signal -100; GFP signal change (wild-type ribosome), % (no concentration beside the values); hit rate 1.6% among 350,000;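 active = significant combined selectivity score with lowered wild-type GFP, culture density cut under 30%, mutant RFP and density less affected; inactive = any of these conditions unmet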; also: one replicate is shown; some compounds called inactive have numbers as strong as hits
MLL AF4-AF9 inh – inhibitors of human MLL-AF4/AF9 interaction; hit rate 0.47% among 350,000; P42568; inhibition, % at 10 µM; AlphaScreen, biotin-AF4 peptide binding to FLAG-AF9; AID 651704;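 active = every replicate reaching a set inhibition limit, whatever the replicate mean, cut at about 25% in these data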;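 also: 0% = plate neutral control median and 100% = total signal loss; the record names both 10 and 1 µM as test concentration; the first replicate is given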
Target sequence (P42568 whole entry, looked up): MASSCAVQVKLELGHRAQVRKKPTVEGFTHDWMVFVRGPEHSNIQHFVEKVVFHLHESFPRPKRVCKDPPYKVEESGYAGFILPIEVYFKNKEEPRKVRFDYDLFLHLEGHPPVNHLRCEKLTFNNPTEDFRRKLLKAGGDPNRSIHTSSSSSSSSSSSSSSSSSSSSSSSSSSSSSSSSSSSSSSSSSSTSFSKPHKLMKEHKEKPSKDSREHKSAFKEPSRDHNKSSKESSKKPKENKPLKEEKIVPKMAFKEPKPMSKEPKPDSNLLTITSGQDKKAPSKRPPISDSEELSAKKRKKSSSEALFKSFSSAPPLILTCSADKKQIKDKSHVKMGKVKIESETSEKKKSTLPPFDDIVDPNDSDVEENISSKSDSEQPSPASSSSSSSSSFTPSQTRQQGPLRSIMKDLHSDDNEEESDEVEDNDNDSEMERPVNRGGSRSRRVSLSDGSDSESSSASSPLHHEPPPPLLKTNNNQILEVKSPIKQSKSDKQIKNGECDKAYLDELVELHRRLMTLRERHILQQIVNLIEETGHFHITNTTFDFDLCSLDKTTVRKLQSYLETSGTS
FGF22 binding – binders of recombinant human FGF22 by thermal shift; calls only at 9.99 µM; SYPRO orange fluorescence; percent of sucrose octasulfate shift, DMSO zero; Q9HCT0; AID 651658; hit rate 1.5% among 340,000;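 active = melting point raised past a set limit in the mean and every replicate; three in four hits are not shown here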
Target sequence (Q9HCT0 whole entry, looked up): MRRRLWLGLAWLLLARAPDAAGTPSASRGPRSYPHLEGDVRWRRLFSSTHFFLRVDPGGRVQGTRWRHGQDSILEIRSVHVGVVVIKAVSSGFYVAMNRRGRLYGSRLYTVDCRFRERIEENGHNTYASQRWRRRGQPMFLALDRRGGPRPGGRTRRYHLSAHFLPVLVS
UCH37 inh – human UCH37 deubiquitinating enzyme inhibition; purified proteasome/UCH37, Ub-AMC cleavage fluorescence; Q9Y5K5; inhibition, % (concentration not given with the values); hit rate 0.33% among 330,000;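 active = mean of two replicates above 20%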;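 also: 0% = compound-free wells with enzyme and 100% = wells lacking proteasome; stock transfer was 100 nL into about 20 µL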
Target sequence (Q9Y5K5 whole entry, looked up): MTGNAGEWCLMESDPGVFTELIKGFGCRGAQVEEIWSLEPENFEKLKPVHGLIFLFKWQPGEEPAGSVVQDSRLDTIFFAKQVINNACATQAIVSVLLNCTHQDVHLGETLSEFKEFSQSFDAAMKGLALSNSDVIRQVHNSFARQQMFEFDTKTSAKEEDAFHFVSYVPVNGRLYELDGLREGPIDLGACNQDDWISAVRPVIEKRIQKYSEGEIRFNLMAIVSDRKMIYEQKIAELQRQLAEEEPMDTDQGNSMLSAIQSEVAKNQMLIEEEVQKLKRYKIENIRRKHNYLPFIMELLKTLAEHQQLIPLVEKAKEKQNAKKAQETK
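Material: Human UCH37 enzyme supplied as purified proteasome complex | Schedule: 30 min preincubation with enzyme, 25 min cleavage at room temperature | Detection: AMC fluorescence 355/460 nm | Measure: % inhibition of Ub-AMC cleavage fluorescence | Controls: Wells without proteasome as full block, compound-free enzyme plus substrate as uninhibited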
Ecoli rRNA inh OD600 – second read-out of Ecoli rRNA inh, no call of its own (marks repeat the call); OD600 change, %; measured here: OD600 growth;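 optical density of the mix in the first replicate; 0 = DMSO median and -100 = no signal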
Ecoli rRNA inh RFP – further read-out of Ecoli rRNA inh, marked with its call; RFP signal change, %; measured here: RFP humanized mutant strains;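 first replicate; 0 = DMSO median and -100 = no signal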
Active calls of the source: *; & = joins results of further samples. The list is partial (hit frequency here may not be typical).

Results for O=C(CC(Nc1ccccc1Cl)C(=O)OCC(=O)c1cccs1)c1ccccc1 (stereo not given) ?
E coli growth: 0.74; Bfl-1 A1 inh: 0.3; T cruzi inh: -29; Beta cell apopt: -8; UCH37 inh: 6.1

Results for Cc1ccc(S(=O)(=O)NCC(=O)OCC(=O)NCc2ccc3c(c2)OCO3)cc1 ?
E coli growth: 0.63; Ecoli rRNA inh: 7; MLL AF4-AF9 inh: 1.4; FGF22 binding: inactive; UCH37 inh: 0.0; Ecoli rRNA inh OD600: 12; Ecoli rRNA inh RFP: 1.5

Results for CC(C)c1ccc(/C=C2\C(=N)N3N=C(CC(=O)N4CCCCC4)SC3=NC2=O)cc1 ?
E coli growth: 0.72; Bfl-1 A1 inh: 0.4; T cruzi inh: -4; Beta cell apopt: 4; Ecoli rRNA inh: 10; MLL AF4-AF9 inh: -9.7; FGF22 binding: inactive; UCH37 inh: 5.1; Ecoli rRNA inh OD600: 19; Ecoli rRNA inh RFP: -1.4

What do the screens show for `OCC[C@H]1C[C@@H](O)[C@H](O)[C@]2(OCCc3ccccc32)O1`?
E coli growth: 0.75; Bfl-1 A1 inh: -0.3; Beta cell apopt: 1; Ecoli rRNA inh: 9; MLL AF4-AF9 inh: 9.5; FGF22 binding: inactive; UCH37 inh: 1.6; Ecoli rRNA inh OD600: 14; Ecoli rRNA inh RFP: 2.2

What do the screens show for `Cn1c(N)c(C(=O)COC(=O)CCCOc2ccc(Cl)cc2Cl)c(=O)n(C)c1=O`?
E coli growth: 0.66; Bfl-1 A1 inh: -0.3; T cruzi inh: 9; Beta cell apopt: -8; Ecoli rRNA inh: -54; MLL AF4-AF9 inh: -2.8; FGF22 binding: inactive; UCH37 inh: 1.7; Ecoli rRNA inh OD600: -75; Ecoli rRNA inh RFP: -30

How did CCOC(=O)N1CCN(C(=O)c2ccc(S(=O)(=O)Nc3ccccc3)cc2)CC1 do in these assays?
E coli growth: 0.63; Bfl-1 A1 inh: -0.2; Beta cell apopt: -1; Ecoli rRNA inh: -9; MLL AF4-AF9 inh: 0.1; FGF22 binding: inactive; UCH37 inh: -0.1; Ecoli rRNA inh OD600: -6; Ecoli rRNA inh RFP: 1.6

What do the screens show for `CC(NC(=S)Nc1ccc(F)cc1)C(c1cccs1)N1CCOCC1` (stereo not given)?
E coli growth: 0.74; Bfl-1 A1 inh: 0.3; T cruzi inh: -16; Beta cell apopt: 3; Ecoli rRNA inh: -5; MLL AF4-AF9 inh: 2.7; FGF22 binding: inactive; UCH37 inh: 0.1; Ecoli rRNA inh OD600: -9; Ecoli rRNA inh RFP: -1.8

What do the screens show for `CN(Cc1ccccc1NCC(=O)Nc1ccccc1C#N)C1CCCCC1`?
E coli growth: 0.68; Bfl-1 A1 inh: -0.3; T cruzi inh: 14; Beta cell apopt: -3; Ecoli rRNA inh: 8; MLL AF4-AF9 inh: 3.0; FGF22 binding: inactive; UCH37 inh: 0.0; Ecoli rRNA inh OD600: 7; Ecoli rRNA inh RFP: 4.7

How did CCCSc1nc(C)c(CC(=O)OCC)c(=O)[nH]1 do in these assays?
E coli growth: 0.73; Bfl-1 A1 inh: 1.2; T cruzi inh: -5; Beta cell apopt: -7; UCH37 inh: 4.1

What do the screens show for `CC(=O)Nc1ccc(Nc2nc3ccccc3n3cnnc23)cc1`?
E coli growth: 0.67; Bfl-1 A1 inh: -0.8; T cruzi inh: -11; Beta cell apopt: -7; Ecoli rRNA inh: 12; MLL AF4-AF9 inh: 0.4; FGF22 binding: inactive; UCH37 inh: 3.3; Ecoli rRNA inh OD600: 5; Ecoli rRNA inh RFP: 0.8

What do the screens show for `CCc1ccc2oc(-c3ccc(N)cc3)nc2c1`?
E coli growth: 0.68; Bfl-1 A1 inh: -6.2; T cruzi inh: 25; Beta cell apopt: 0; Ecoli rRNA inh: -52; MLL AF4-AF9 inh: 6.8; FGF22 binding: inactive; UCH37 inh: -206; Ecoli rRNA inh OD600: -72; Ecoli rRNA inh RFP: -21

What do the screens show for `COC(=O)c1c(NC(=O)CCCC(=O)O)sc2c1CCCCC2`?
E coli growth: 0.67; Bfl-1 A1 inh: -3.0; T cruzi inh: 6; Beta cell apopt: -1; MLL AF4-AF9 inh: -0.2; FGF22 binding: inactive; UCH37 inh: -0.8

Results for Cc1nc(-c2ccccn2)nc(N2CCOCC2)c1Cl ?
E coli growth: 0.63; Bfl-1 A1 inh: 0.5; T cruzi inh: -57; Beta cell apopt: -6; Ecoli rRNA inh: -6; MLL AF4-AF9 inh: 1.7; FGF22 binding: inactive; UCH37 inh: 2.8; Ecoli rRNA inh OD600: -7; Ecoli rRNA inh RFP: 5.0

What do the screens show for `Cc1cccc(NC(=S)NCc2ccccn2)c1`?
E coli growth: 0.73; Bfl-1 A1 inh: -1.6; T cruzi inh: -4; Beta cell apopt: -1; UCH37 inh: 4.3

What do the screens show for `Cc1cc(C)nc(SCCC(=O)Nc2ccccc2C)n1`?
E coli growth: 0.75; Bfl-1 A1 inh: 0.2; T cruzi inh: -6; Beta cell apopt: -2; UCH37 inh: -0.9

Results for O=C1CSC(c2ccncc2)N1Cc1ccccc1 (stereo not given) ?
E coli growth: 0.69; Bfl-1 A1 inh: -0.1; T cruzi inh: -16; Beta cell apopt: 0; Ecoli rRNA inh: 5; MLL AF4-AF9 inh: -3.0; FGF22 binding: inactive; UCH37 inh: 3.4; Ecoli rRNA inh OD600: 3; Ecoli rRNA inh RFP: -0.5

What do the screens show for `O=C(NCC(=O)N(Cc1ccco1)C(C(=O)NC1CCCC1)c1cccnc1)c1cccs1` (stereo not given)?
E coli growth: 0.71; Bfl-1 A1 inh: 0.2; T cruzi inh: -8; UCH37 inh: 0.3

What do the screens show for `Cc1ccc(NC(=O)Nc2cccc(C)n2)c(C)c1`?
E coli growth: 0.7; Bfl-1 A1 inh: -6.3; T cruzi inh: -4; Beta cell apopt: -3; Ecoli rRNA inh: 7; MLL AF4-AF9 inh: -2.3; FGF22 binding: inactive; UCH37 inh: 0.7; Ecoli rRNA inh OD600: 4; Ecoli rRNA inh RFP: -11

How did Cc1c(-c2ccccc2)[n+](=O)c(-c2ccco2)c(C)n1[O-] do in these assays?
E coli growth: 0.71; Bfl-1 A1 inh: -1.2; T cruzi inh: 4; Beta cell apopt: -1; UCH37 inh: -2.2

How did Cc1noc(NS(=O)(=O)c2ccc(NC(=O)c3cnc4scc(C)n4c3=O)cc2)c1C do in these assays?
E coli growth: 0.64; Bfl-1 A1 inh: -4.9; T cruzi inh: 2; Beta cell apopt: 4; Ecoli rRNA inh: -10; MLL AF4-AF9 inh: -9.3; FGF22 binding: inactive; UCH37 inh: 5.3; Ecoli rRNA inh OD600: -9; Ecoli rRNA inh RFP: -2.3

What do the screens show for `Cc1ccc(S(=O)(=O)N(C)C)cc1NC(=O)COC(=O)CCC(=O)c1cccs1`?
E coli growth: 0.73; Bfl-1 A1 inh: 0.3; T cruzi inh: 1; Beta cell apopt: -13; Ecoli rRNA inh: 1; MLL AF4-AF9 inh: 1.1; FGF22 binding: inactive; UCH37 inh: 3.1; Ecoli rRNA inh OD600: 3; Ecoli rRNA inh RFP: 0.7

Results for COc1ccc(-c2noc(CNC(=O)CCCN3C(=O)[C@H]4CC=CC[C@H]4C3=O)n2)cc1 ?
E coli growth: 0.67; Bfl-1 A1 inh: -0.1; T cruzi inh: 0; Beta cell apopt: 0; Ecoli rRNA inh: 0; MLL AF4-AF9 inh: -7.2; FGF22 binding: inactive; UCH37 inh: 1.2; Ecoli rRNA inh OD600: 6; Ecoli rRNA inh RFP: 4.2

Results for COc1ccc(CNC(=O)C(C)NC(=O)c2cc3ccccc3o2)cc1 (stereo not given) ?
E coli growth: 0.71; Bfl-1 A1 inh: 0.4; T cruzi inh: 3; Beta cell apopt: 0; UCH37 inh: -0.5

What do the screens show for `Cc1cc(C)c(C)c(N=Nc2nc3ccccc3n2C)c1C`?
E coli growth: 0.66; Bfl-1 A1 inh: -1.7; T cruzi inh: 10; Beta cell apopt: 21; UCH37 inh: 3.3

How did O=C1c2ccccc2C(=O)N1C/C=C/c1ccccc1 do in these assays?
E coli growth: 0.69; Bfl-1 A1 inh: -0.5; T cruzi inh: 2; Beta cell apopt: -8; UCH37 inh: 5.1

How did O=C(NC1CC1)C1=C[C@H](C2CC2)C[C@H](OCCCCO)O1 do in these assays?
Bfl-1 A1 inh: 2.1; T cruzi inh: -18; Beta cell apopt: -1; Ecoli rRNA inh: 21; MLL AF4-AF9 inh: 0.3&-3.8; FGF22 binding: inactive; UCH37 inh: 4.2; Ecoli rRNA inh OD600: 18; Ecoli rRNA inh RFP: -4.4

What do the screens show for `CC(=O)c1cc(NC(=O)c2cccc(C(F)(F)F)c2)c(=O)oc1C`?
E coli growth: 0.63; Bfl-1 A1 inh: -0.7; T cruzi inh: -51; Beta cell apopt: -15; Ecoli rRNA inh: 5; MLL AF4-AF9 inh: -4.1; FGF22 binding: inactive; UCH37 inh: 0.9; Ecoli rRNA inh OD600: 7; Ecoli rRNA inh RFP: -2.5

What do the screens show for `CCOc1cccc(C(=O)Nc2nc(-c3ccc(S(=O)(=O)N4CCOCC4)cc3)cs2)c1`?
E coli growth: 0.8; Bfl-1 A1 inh: -0.4; T cruzi inh: -2; Beta cell apopt: -4; UCH37 inh: 0.4

How did CC(=O)OC12CC3CC(C1)C(=NO)C(C3)C2 do in these assays?
E coli growth: 0.73; Bfl-1 A1 inh: 0.3; T cruzi inh: -5; UCH37 inh: 0.1

What do the screens show for `O=C(COC(=O)c1cc[n+]([O-])cc1)NCC12CC3CC(CC(C3)C1)C2`?
E coli growth: 0.71; Bfl-1 A1 inh: 0.3; T cruzi inh: 5; Beta cell apopt: -2; UCH37 inh: 1.4

What do the screens show for `Cc1ccc2nc(N3CCN(CCO)CC3)nc(-c3ccccc3)c2c1`?
E coli growth: 0.68; Bfl-1 A1 inh: 1.4; T cruzi inh: 43; Beta cell apopt: 4; Ecoli rRNA inh: 0; MLL AF4-AF9 inh: 1.4; FGF22 binding: inactive; UCH37 inh: -136; Ecoli rRNA inh OD600: -2; Ecoli rRNA inh RFP: 6.1

Results for CCOC(=O)N1CCC(n2c(SCC(=O)c3ccccc3)nc3ccsc3c2=O)CC1 ?
E coli growth: 0.71; Bfl-1 A1 inh: 0.2; T cruzi inh: 2; Beta cell apopt: 7; UCH37 inh: 3.2

How did COC(=O)c1cc(C)nc2c1c(C)nn2-c1ccccc1 do in these assays?
Bfl-1 A1 inh: 0.2; Beta cell apopt: -5; Ecoli rRNA inh: 8; MLL AF4-AF9 inh: -4.7; FGF22 binding: inactive; Ecoli rRNA inh OD600: 2; Ecoli rRNA inh RFP: -0.4

How did COc1ccccc1CNC(=O)CCCNS(=O)(=O)c1cccc2nsnc12 do in these assays?
E coli growth: 0.7; Bfl-1 A1 inh: 0.4; T cruzi inh: -9; Beta cell apopt: -2; UCH37 inh: 1.9

What do the screens show for `Cc1ccc(S(=O)(=O)CCC(=O)Nc2sccc2C(N)=O)cc1`?
E coli growth: 0.73; Bfl-1 A1 inh: -0.1; Beta cell apopt: -15; Ecoli rRNA inh: -1; MLL AF4-AF9 inh: 0.7; FGF22 binding: inactive; UCH37 inh: 6.6; Ecoli rRNA inh OD600: 6; Ecoli rRNA inh RFP: 6.6
